NPYLR7 agonist: mosquito NPYLR7 agonism | hit rate 0.15% among 270,000 | HEK293T NPYLR7/Galpha15, GCaMP6s calcium fluorescence | activation, % at 10 µM; in the data active = activation above about 40%;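 note: 0% = vehicle and 100% = reference agonist at the receptor; some compounds past the cut are filed as inactive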
NPYLR7 agonist max-min: also measured in NPYLR7 agonist; calls as there; activation, %; measured here: Max-Min RFU normalised activation; some inactives read as strong as hits;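 span of the calcium signal over five minutes; 0% = vehicle and 100% = native peptide agonist; compound fluorescence can raise it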
Starred values were filed as active, the others as inactive; & = joins results of further samples. This is a subset, so the mix of outcomes need not match the whole.

SMILES | NPYLR7 agonist | NPYLR7 agonist max-min
CCn1ncc2c1CCCC2NC(C)C(=O)N1CCN(C(C)=O)CC1 (stereo not given) | 3 | 1
CN(C)CCCN(C(=O)C1CCCCC1)c1nc2c(F)cc(F)cc2s1 | 6 | 3
CCCCN(CC(=O)N1c2ccccc2-n2cccc2C1c1ccc(OC)cc1)C(=O)Nc1cccc(Br)c1 (stereo not given) | -7 | -1
CSc1nnc(SCC(=O)NC(=O)c2cccn2C)s1 | -1 | -2
CCOC(=O)c1cnc(OC)[nH]c1=O | 0 | -1
Cc1cccnc1C1=NOCC(=O)N1C | 6 | 4
CCOC(=O)c1ccc(OC2CC3CCC(C2)N3C(=O)c2ccc(CSCc3c(C)cc(C)cc3C)cc2)cc1 (stereo not given) | 7 | -6
CC(C)N1CCC(=NNC(=O)c2cc(O)c(O)c(O)c2)CC1 | -13 | -24
Cn1cc(CN2CCC(C(=O)NC(c3ccc(F)cc3)c3ccc4ccccc4n3)CC2)c2ccccc21 (stereo not given) | -5 | -11
O=C(O)c1cc(-c2ccc(N3CCOCC3)cc2)nn1-c1ccc(F)cc1 | 7 | 5
O=C1CC2(CCN(C(=O)CC(C(=O)N3CCC4(CC3)CC(=O)c3cc(F)ccc3O4)C3CCCCC3)CC2)Oc2ccc(F)cc21 (stereo not given) | -6 | -12
C=CCn1nc(C(=O)O)c2c1CCC(N(C)Cc1ccc3nonc3c1)C2 (stereo not given) | 20 | 8
CCOC(=O)c1c(NC(=O)CS(=O)(=O)c2ccccc2)sc(C(=O)OC)c1C | -5 | -11
CC(Cn1cnc2ccccc2c1=O)NCc1nc(C2CCCCC2)no1 (stereo not given) | -2 | -4
O=C(Nc1ccc(N2CCc3ccccc3C2)c(C(=O)NC2CC2)c1)c1ccc2ccccc2c1 | -2 | -6
CC(C)c1nc(NC(=O)C2=NOC(c3ccccc3)C2)n[nH]1 (stereo not given) | 4 | 0
COc1ccc(C(=O)N2CCN(c3cc(Cl)ccc3C)C(=O)C2C)cc1 (stereo not given) | -10 | -7
CN1CCN(c2nc3c(c(Oc4cccc(F)c4)n2)CN(C(=O)Cc2cccs2)CC3)CC1 | 6 | 3
COc1ccc2cc(C3CN(Cc4nnc(C)s4)CCO3)ccc2c1 (stereo not given) | 5 | 7
CCOC(=O)C(C)Sc1nc2c(c(=O)n1-c1ccc(C)cc1)SCC2 (stereo not given) | -2 | -5

Part of the list above, with two lines to a compound:
Order of results – NPYLR7 agonist, NPYLR7 agonist max-min
C=CCn1nc(C(=O)O)c2c1CCC(N(C)Cc1ccc3nonc3c1)C2 (stereo not given)
 : 20, 8
CSc1nnc(SCC(=O)NC(=O)c2cccn2C)s1
 : -1, -2
CN(C)CCCN(C(=O)C1CCCCC1)c1nc2c(F)cc(F)cc2s1
 : 6, 3

Continued:
SMILES | NPYLR7 agonist | NPYLR7 agonist max-min
Cc1ccccc1N1CCN(c2ncccc2CNC(=O)c2ccncc2)CC1 | 4 | 2
O=C(NCCC1=CCCCC1)C1CCC(=O)N(CCc2ccccc2)C1 (stereo not given) | 7 | 3
COCCN(Cc1cccc(OS(=O)(=O)c2cccc(C(F)(F)F)c2)c1)C(=O)c1cccc(Br)c1 | 25 | 23
CSc1cccc(NC(=O)N2CCCCC2CCN2CCOCC2)c1 (stereo not given) | 5 | 3
O=C(O)c1nn(-c2ccccc2F)c(=O)n(Cc2cccc(C(F)(F)F)c2)c1=O | 20 | 20
Cc1ccc(-n2c(C)nnc2SCc2ccc(C(=O)N3CCN(c4ccccc4F)CC3)cc2)cc1 | -1 | 2
CCCC(=O)OCC(O)CN(Cc1ccc2c(c1)OCO2)Cc1ccccc1F (stereo not given) | -3 | -2
CCc1cc(N2CCN(Cc3ccc4c(C)cc(=O)oc4c3)CC2)ncn1 | 4 | -6
Cc1nnc(SCC(=O)Nc2sc3c(c2C(N)=O)CCC(C)C3)n1C1CC1 (stereo not given) | -3 | 2
CN1c2ccccc2C(C)(C)C12CC(CCl)=NO2 (stereo not given) | -3 | -3
CCCCCCCCC(=O)N(Cc1cccc(OS(=O)(=O)CC)c1)C(C)CC (stereo not given) | -5 | -6
CCn1c(C)c(C(=O)CN(C(=O)COc2ccc(Cl)cc2)C2CCCCC2)c(C)c1C(=O)OC | 12 | 24
O=C(c1cccc(C(F)(F)F)c1)N1CCC2(CC1)SCCN2C(=O)CCc1ccccc1 | 21 | 24
CCN(CC)c1ccc(NC(=O)c2cc(Cl)cn2C)cc1 | -1 | -2
Cc1ccc(C(CC(=O)N(CCN(C)C)Cc2ccccc2)c2c[nH]c3ccccc23)c(C)c1 (stereo not given) | -3 | -2
C=CCc1c(C)nc2c(-c3ccccc3)cnn2c1N1CCCC1 | 5 | 2
CCCn1c(SCC(=O)c2cc(OC)ccc2OC)nnc1-c1ccncc1 | 16 | 12
O=C(c1cnn2c(C(F)(F)F)cc(-c3ccc(Br)cc3)nc12)N1CCCCCC1 | 2 | 2
Cc1ccccc1-n1cc(CNC(=O)C2CCC(=O)N(CCc3cccc(F)c3)C2)cn1 (stereo not given) | 7 | 3
COc1cc(-c2ccc3[nH]ncc3c2)cc(OC)c1OC | -3 | -4
N#CC1C(=N)Oc2c(cc3ccccc3c2O)C1c1ccccc1 (stereo not given) | -6 | -3
COc1cc(C=NN=C(N)N)ccc1O | -5 | -7
O=C(NC1CCN(CC2CCCC2)CC1)c1ccc(Cl)cc1F | 4 | 0
COc1ccccc1-c1ccc(NC(C)c2cnn(C)c2)nn1 (stereo not given) | 3 | 2
O=C(CSc1nc2[nH]ncc2c(=O)[nH]1)Nc1ccc(OC(F)(F)F)cc1 | -4 | -5
Cc1ccccc1Cn1c(=O)c2c(nc3n2CCCN3Cc2ccccc2)n(C)c1=O | 3 | 8
O=C(Nc1ccc(Cl)c(Cl)c1)c1cc2nc(-c3ccc(F)cc3)cc(C(F)(F)F)n2n1 | -8 | -16
COc1cccc(Cc2nsc(Oc3ccc(C(=O)NC4CCN(Cc5ccccc5)CC4)cc3OC)n2)c1 | -9 | -12
C=CCN1C(=O)C2(CC(=O)Nc3c2sc(C(=O)O)c3-c2ccccc2)c2cc(Cl)ccc21 (stereo not given) | 2 | 27
CCOC(=O)c1cc(-c2cccc(NC(=O)c3cc(F)cc(F)c3F)c2)n(-c2ccccn2)n1 | 20 | 10
O=C(NC1CCCc2c1cnn2-c1ccc(F)cc1F)c1ccc(N2CCCC2=O)cc1 (stereo not given) | 11 | 4
COC(=O)c1sc(N2C(=O)C(O)=C(C(=O)c3cccs3)C2c2ccccc2)nc1C (stereo not given) | 8 | 5
Cc1nc(NC(=O)c2cc(Br)ccc2Cl)sc1C | -7&0 | 15&-3
O=C(CN(C(=O)NC1CCCCC1)C1CC1)N(CCc1c[nH]c2ccccc12)Cc1ccc(F)cc1 | 15 | 13
O=C(c1cncc(-c2ccnc3[nH]ccc23)n1)N1CCCCC1 | 3 | 1
Cc1ccccc1-c1nc2ccc(Cl)cn2c1NCc1ccccc1 | 2 | 12
O=C(CCl)NNC(=O)c1ccc(Cl)cc1 | -5 | -9
COc1cccc(CC2CN(C(=O)c3ccc(-c4ccn[nH]4)cc3)CCO2)c1 (stereo not given) | 4 | 2
Cn1c(Sc2ccc(F)c(F)c2)c(C#N)c(=O)n(C)c1=O | 7 | 5
c1ccc(Nc2ccc(Nc3ccccc3)nn2)cc1 | 0 | 0
COc1ccc(OC)c(N2CCN(C(=O)CCc3ccccc3)C(C)C2=O)c1 (stereo not given) | -5 | -2
Cc1nn(CC(=O)Nc2ncccc2OCc2ccccc2)c(C)c1[N+](=O)[O-] | -7 | -11
Cc1ccc(N2C(=O)c3ccc(-c4nc5ccccc5c(=O)o4)cc3C2=O)cc1C | -9 | -15
O=C(c1cccs1)N(CCCn1ccnc1)c1nc2ccc(F)cc2s1 | -10 | -17
Cc1cc(C)n(C2CCN(Cc3cc4ccccc4o3)C2)n1 (stereo not given) | -2 | -3
COc1ccc(CN(C(=O)c2cccc(Br)c2)C(C)C)cc1OS(C)(=O)=O | 5 | 10
Cc1noc(C)c1C(=O)N(C)C1CCS(=O)(=O)C1 (stereo not given) | 2 | 2
COC(=O)c1sccc1S(=O)(=O)NCc1ccc(C(=O)N2CCCCC2)cc1 | 8 | 9
Cc1nc(SCc2cc(C)on2)c2c(C)c(C)sc2n1 | 3 | 2
Cc1c(C(=O)C(F)(F)F)c2ccccn2c1C1=NS(=O)(=O)c2ccccc21 | 4 | 10
O=c1c(=O)n2c(nn1Cc1ccccc1Cl)sc1ccccc12 | 3 | 2
O=S(=O)(NCc1ccc2c(c1)OCO2)c1ccc(Br)s1 | 1 | -1
CCCCN1C(=O)CCc2cc(NS(=O)(=O)c3ccc(OC)cc3C)ccc21 | 2 | -2
COCCn1c(C)cc(C=C(C#N)C(=O)C(C)(C)C)c1C | 2 | 4
COc1ccnc(CS(=O)c2nc3ccc(OC(F)F)cc3[nH]2)c1OC (stereo not given) | 7&-9 | -8&-13
Cc1cc(C(C)(O)CNC(=O)c2ccc3c(c2)CCC(=O)N3)c(C)o1 (stereo not given) | 1 | 38
N#Cc1c(NC(=O)c2ccco2)sc2c1CCCCC2 | 6 | 0
COCCCN(CC(=O)N(Cc1cccn1Cc1ccccc1)C(C)C)C(=O)c1ccc(C)c([N+](=O)[O-])c1 | 2 | -1
COCCCN(Cc1csc(COc2cc(C)cc(C)c2C)n1)S(=O)(=O)c1ccc(C)cc1 | 20 | 19
Cc1cc(C)cc(NC(=O)c2ccc(S(N)(=O)=O)o2)c1 | 8 | 8

(continued)
SMILES | NPYLR7 agonist | NPYLR7 agonist max-min
O=C(CC1SC(=Nc2ccc3c(c2)OCCO3)NC1=O)Nc1ccc(F)cc1F (stereo not given) | 1 | 7
O=C(NCCN1CCCCC1)NCC1CCS(=O)(=O)C1 (stereo not given) | -3 | -3
CCCCCCC(C)NC(=O)CSc1nnc(NCC)s1 (stereo not given) | 2 | -2
CCOC(=O)C1(C)CCCN1C(=O)c1ccc2ccccc2n1 (stereo not given) | -1 | -5
COC(=O)c1sc(=S)n(-c2cc(OC)ccc2OC)c1N | 11 | 5
CN1CCN(C(=S)NC(=O)c2ccco2)CC1 | 11 | 9
COc1ccc(N2CCN(Cc3nc4c(c(=O)[nH]c(=O)n4C)n3C(C)C(C)=O)CC2)cc1 (stereo not given) | 16 | 6
Cc1ccccc1CC1(CO)CCCN(Cc2ccccc2C(F)(F)F)C1 (stereo not given) | 6 | 1
CS(=O)(=O)N1CCN(c2nnc(-c3ccccc3)c3ccccc23)CC1 | 1 | -2
CC(C)c1ccc(CNc2nnnn2C)cc1 | -1 | -3
O=C1OCC2=Nc3ccccc3SC(c3ccc4c(c3)OCO4)C12 (stereo not given) | 3 | 2
COc1cccc(CN(CCc2c[nH]c3ccccc23)Cc2nc(C(=O)NC3CC3)co2)c1OC | -12 | 7
CN(Cc1cnccn1)C(=O)CC1C(=O)NCCN1Cc1ccc(F)cc1Cl (stereo not given) | 15 | 2
Cc1cccnc1C(NC(=O)C1CCN(Cc2ccc(Oc3ccccc3)cc2)CC1)c1ccc(F)cc1 (stereo not given) | 9 | 12
NC(=O)c1ccc(NC(=O)CCN2CCCC(Cc3cccnc3)C2)cc1 (stereo not given) | 17 | 4
COC(=O)c1sccc1S(=O)(=O)NC(=O)c1cccc(OC)c1 | -1 | -1
O=C(CN1CCN(c2ncccn2)CC1)NCc1ccc(Cl)cc1 | 11 | 4
CC(Sc1cc(Cl)ccc1Cl)C(=O)NC(C)c1ccccn1 (stereo not given) | 11 | 4
O=C(NCc1ccccc1F)N(Cc1cccc(O)c1)C1CCC(O)CC1 (stereo not given) | -7 | -7
O=S(=O)(Nc1ccc(Cl)cc1)c1ccc2oc(=S)n(CN3CCOCC3)c2c1 | 1 | 3
CN1CC(=O)N2C[C@H](NC(=O)c3cccc(-c4ncc[nH]4)c3)C[C@H]2C1=O | 1 | 3
Cc1ccc(C(C2Sc3nc(C)nn3C2=O)N2CCC(C)CC2)cc1 (stereo not given) | 8 | 7
COc1ccc(C(CC(=O)NCc2ccco2)c2cn(C)c3ccccc23)cc1OC (stereo not given) | -5 | 3
COc1ccc(NC2CCCN(C(=O)Cn3ccc(C)n3)C2)cc1OC (stereo not given) | -1 | -4
CCc1c(C)nc2c(-c3cccc(Cl)c3)c(C)[nH]n2c1=O | -20 | -25
Cc1ccc(NC(=O)NNC(=O)c2cccn(Cc3cccc(Cl)c3)c2=O)cc1 | -4 | -6
COc1ccccc1NC(=O)N1CCCC1C(=O)Nc1nnc(-c2ccc(Br)cc2)s1 (stereo not given) | 0 | 1
CN(CC(=O)Nc1ccc(Cl)cc1)C(=O)c1cncn1-c1ccccc1 | 19 | 11

Structures listed so far with two or more sulfur atoms, in the order listed:
SMILES | NPYLR7 agonist | NPYLR7 agonist max-min
CSc1nnc(SCC(=O)NC(=O)c2cccn2C)s1 | -1 | -2
CCOC(=O)c1c(NC(=O)CS(=O)(=O)c2ccccc2)sc(C(=O)OC)c1C | -5 | -11
CCOC(=O)C(C)Sc1nc2c(c(=O)n1-c1ccc(C)cc1)SCC2 (stereo not given) | -2 | -5
Cc1nnc(SCC(=O)Nc2sc3c(c2C(N)=O)CCC(C)C3)n1C1CC1 (stereo not given) | -3 | 2
COC(=O)c1sc(N2C(=O)C(O)=C(C(=O)c3cccs3)C2c2ccccc2)nc1C (stereo not given) | 8 | 5
O=C(c1cccs1)N(CCCn1ccnc1)c1nc2ccc(F)cc2s1 | -10 | -17
COC(=O)c1sccc1S(=O)(=O)NCc1ccc(C(=O)N2CCCCC2)cc1 | 8 | 9
Cc1nc(SCc2cc(C)on2)c2c(C)c(C)sc2n1 | 3 | 2
O=S(=O)(NCc1ccc2c(c1)OCO2)c1ccc(Br)s1 | 1 | -1
COCCCN(Cc1csc(COc2cc(C)cc(C)c2C)n1)S(=O)(=O)c1ccc(C)cc1 | 20 | 19
CCCCCCC(C)NC(=O)CSc1nnc(NCC)s1 (stereo not given) | 2 | -2
COC(=O)c1sc(=S)n(-c2cc(OC)ccc2OC)c1N | 11 | 5
COC(=O)c1sccc1S(=O)(=O)NC(=O)c1cccc(OC)c1 | -1 | -1
O=S(=O)(Nc1ccc(Cl)cc1)c1ccc2oc(=S)n(CN3CCOCC3)c2c1 | 1 | 3

Screening results deposited in PubChem BioAssay by Fisher Drug Discovery Resource Center.
